PrP 5UTR inh: inhibition of PrP 5' UTR reporter expression; AID 488862; cell-based PrP 5' UTR mRNA reporter, plate reader; 340,000 compounds, 0.35% hits; inhibition, % (concentration not given with the values);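 active = every replicate at 50% or more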;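 note: 0 = median of the neutral control wells; tested in H4 reporter cells; numbers are from one replicate; inactives centre near -14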
Bead autofluor: compound fluorescence in toxin protease inhibitor counterscreen. compound autofluorescence counterscreen, microsphere flow cytometry; hits give high values. fluorescence intensity (concentration not given with the values). 360,000 compounds, 3.1% hits. AID 624483;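 active = at least 3 SD above the mean of all compounds, about 16000 in these data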;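 note: 100 nL of 1 mM stock went into each well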
Sa ugtP lethal: kills S. aureus RN4220 lacking UgtP. S. aureus RN4220 ugtP deletion, OD600 growth, 16 h; some inactives read as strong as hits. growth inhibition, % (test concentration not listed). 330,000 compounds, 0.54% hits;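 active = z-score under -3 and OD600 up to 0.15 on both plates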;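 note: plate controls were untreated wells for no effect and antibiotic for full effect; wells of about 80 µL received 100 nL stock; the first replicate is given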
Mtb hypoxia rep: inhibitors of hypoxia-regulated fluorescent reporter in Mycobacterium tuberculosis. M. tuberculosis hypoxia-regulated fluorescent reporter, fluorescence. fluorescence inhibition, % (no concentration beside the values). 300,000 compounds, 0.1% hits;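 active = 35 to 45% if threefold the growth effect, above 45% if 1.5-fold the growth effect; inactive = the rest, general growth blockers included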;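 note: wells of about 50 µL received 100 nL stock; 0% = vehicle wells and 100% = reference inhibitor wells; whole bacteria with a GFP reporter of the hypoxia response; strong numbers were not always called active; many hits fall short of the cut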
Sa RN4220 lethal: kills Staphylococcus aureus RN4220; inhibition, % (concentration not given with the values); S. aureus RN4220 growth, OD600, 16 h; 330,000 compounds, 0.33% hits;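 active = z-score of -3 or lower and OD600 up to 0.18 on both plates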;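 note: plate controls were untreated cells for no effect and reference antibiotic for full effect; stock transfer was 100 nL into about 80 µL; one replicate is shown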
BJeLR lethal: BJeLR cell viability loss; BJeLR (HRASV12) viability, CellTiter-Glo ATP luminescence, 48 h; reference of the scale not given here; inhibition, % (test concentration not listed); 300,000 compounds, 0.17% hits;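 active = replicate mean above 50%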;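 note: 50 nL library stock added to about 25 µL; numbers are from one replicate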
Mtb hypoxia rep growth: recorded beside Mtb hypoxia rep, whose call it bears; growth inhibition, %; measured here: M. tuberculosis growth (absorbance);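 0% = vehicle and 100% = reference antibiotic; read after six days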
Numbers without * were called inactive; x = not tested or not shown.

Every second line gives: PrP 5UTR inh	Bead autofluor	Sa ugtP lethal	Mtb hypoxia rep	Mtb hypoxia rep growth	Sa RN4220 lethal	BJeLR lethal
1	COC(=O)C(C)N(C#N)c1nc(NC(C)C)nc(SC)n1 (centres undefined)
  -5	4675	2	x	x	-1.2	3
2	O=C(Nc1cc(S(=O)(=O)Nc2ccccc2Cl)ccc1O)c1ccc(F)cc1F
  -1	3720	0	3	19	4.6	x
3	Cc1n[nH]c(C)c1CCN(C)C(=O)C1CCC(=O)N(CC2CCCCC2)C1 (centres undefined)
  -13	6490	6	1	-7	2.4	1
4	CNc1c(NS(=O)(=O)c2ccc(C(C)(C)C)cc2)c(=O)oc2ccccc12
  -12	3932	2	5	-3	9.7	-3
5	C/C(=N/NC(=O)COc1ccc(C(C)(C)C)cc1)c1ccc(N2CCOCC2)cc1
  -17	3603	-4	5	7	-1.1	x
6	COc1cccc(/C=C2\SC(=S)N(CCC(=O)Nc3ccc(O)cc3)C2=O)c1
  -7	3166	3	0	2	3.6	-7
7	COc1cccc(C(C(=O)NCC2CCCO2)N(C(=O)Cn2nnc3ccccc32)c2ccc(NC(C)=O)cc2)c1OC (centres undefined)
  -23	4163	3	11	-2	3.4	7
8	O=C(/C=C/c1ccc(Cl)cc1)N(Cc1cccs1)C1CCS(=O)(=O)C1 (centres undefined)
  6	x	-2	1	2	6.2	1
9	Cc1cc(C(=O)OCC(=O)Nc2ccc(S(=O)(=O)N3CCOCC3)cc2)c(C)o1
  -15	2870	2	2	-2	-0.6	16
10	O=C(NNC(=O)c1cccs1)c1csc(N2CCOCC2)n1
  -10	5317	-2	6	6	-2.1	8
11	Cc1[nH][nH]c(=O)c1C(c1ccccc1[N+](=O)[O-])C(C#N)C#N (centres undefined)
  -22	2770	4	5	-2	0.6	2
12	CN(c1ccccc1)S(=O)(=O)c1nnc(NC(=O)C2CCCCC2)s1
  2	4390	9	9	-1	8.1	6
13	CN(CC1COc2ccccc2O1)C(=O)c1cccc(S(=O)(=O)N2CCCC2)c1 (centres undefined)
  6	x	8	6	2	8.4	x
14	C#CCn1cc(/C=N/Nc2nc3ccccc3[nH]2)c2ccccc21
  -35	2395	x	x	x	x	10
15	O=C(CN1CCN(S(=O)(=O)c2ccccc2)CC1)Nc1ccc(Cl)cn1
  -26	3805	0	2	-4	0.8	5
16	Cc1cccc(C2C3C(=O)N(Cc4ccccc4)C(=O)C3[C@]3(Cc4ccc(Cl)cc4)C(=O)N(c4ccccc4)C(=O)N23)c1 (some centres undefined)
  x	x	0	3	3	3.5	x
17	Cc1c(Cl)cccc1NC(=O)Cn1cnc(S(=O)(=O)N2CCCC2)c1
  -15	5388	-6	-7	1	-3.7	10
18	CC(C)CCNC(=O)NC(=O)COC(=O)CNC(=O)C1CCCCC1
  -23	4497	3	5	-2	2.5	16
19	S=C(c1ccccc1)N1CCN(C(=S)c2ccccc2)CC1
  -42	2156	2	-4	8	3.4	3
20	CCN(CC)CCOC(=O)c1ccc(NC(=O)/C=C/c2cccs2)cc1
  -12	2560	12	-9	-1	4.1	6

Compounds from the list above that have a Cl atom, in the order listed:
Every second line gives: PrP 5UTR inh	Bead autofluor	Sa ugtP lethal	Mtb hypoxia rep	Mtb hypoxia rep growth	Sa RN4220 lethal	BJeLR lethal
2	O=C(Nc1cc(S(=O)(=O)Nc2ccccc2Cl)ccc1O)c1ccc(F)cc1F
  -1	3720	0	3	19	4.6	x
8	O=C(/C=C/c1ccc(Cl)cc1)N(Cc1cccs1)C1CCS(=O)(=O)C1 (centres undefined)
  6	x	-2	1	2	6.2	1
15	O=C(CN1CCN(S(=O)(=O)c2ccccc2)CC1)Nc1ccc(Cl)cn1
  -26	3805	0	2	-4	0.8	5
16	Cc1cccc(C2C3C(=O)N(Cc4ccccc4)C(=O)C3[C@]3(Cc4ccc(Cl)cc4)C(=O)N(c4ccccc4)C(=O)N23)c1 (some centres undefined)
  x	x	0	3	3	3.5	x
17	Cc1c(Cl)cccc1NC(=O)Cn1cnc(S(=O)(=O)N2CCCC2)c1
  -15	5388	-6	-7	1	-3.7	10

Additional results.
Every second line gives: PrP 5UTR inh	Bead autofluor	Sa ugtP lethal	Mtb hypoxia rep	Mtb hypoxia rep growth	Sa RN4220 lethal	BJeLR lethal
21	O=c1cc(CSc2ccccc2)nc(-c2ccccc2)[nH]1
  -18	4151	8	12	8	5.1	-2
22	CCOC(=O)c1cc(C(=O)c2cc(Br)ccc2O)coc1=N
  -17	5020	-2	-7	-8	5.9	-7
23	CCCN(Cc1ccccc1)C(=S)Nc1ccc(C(C)=O)cc1
  -15	5862	0	6	-7	3.0	6
24	CCCN1CCC(=O)N(CCOc2ccccc2)CC1
  -17	4039	-3	-1	5	8.3	1
25	COc1ccc2cc(C3(C)NC(=O)NC3=O)ccc2c1 (centres undefined)
  -12	3758	3	x	x	3.2	-3
26	C=CCNCC(=O)NN=C(c1ccccc1)c1ccccc1
  -3	2243	-4	x	x	4.1	-1
27	O=C(CCCN1C(=O)/C(=C/c2ccccc2OC(F)F)SC1=S)Nc1cccnc1
  -11	3545	-2	17	20	2.3	x
28	CCc1ccccc1NC(=O)C1C2C=CC(O2)C1C(=O)O (centres undefined)
  -13	3753	x	x	x	x	-2
29	COC(=O)CCC(=O)N1CCCC(CNS(=O)(=O)c2ccc(OC)cc2)C1 (centres undefined)
  -1	3810	4	7	-13	-0.7	4
30	COc1ccc(S(=O)(=O)N2CCC(C(=O)NCCN3CCOCC3)CC2)cc1C
  -20	3491	0	13	4	4.0	6
31	CN(C)C(CNC(=O)Cc1cccc(C(F)(F)F)c1)c1ccccc1 (centres undefined)
  -21	3716	3	21	10	4.0	-11
32	Cc1cc(=O)oc2c3c(cc(OCC(=O)N4CCC(C(=O)O)CC4)c12)OC(C)(C)CC3
  -31	4128	-1	x	x	0.4	4
33	CC1CC(C)CN(C(=O)COC(=O)c2ccc3c(c2)OCCO3)C1 (centres undefined)
  -15	3706	0	8	8	2.2	x
34	O=C(NCCO)/C(=C\c1cccs1)NC(=O)c1cccs1
  -11	9651	4	4	-5	2.8	2
35	CC1(C)Cc2c(sc3c2C2=NCCN2C=N3)CO1
  -16	4388	-2	6	8	4.0	2
36	CCCCCCCCCCOC(=O)c1csc2nnsc12
  -14	20631*	5	7	17	12	-7
37	CC(C)OCCCNC(=O)CCSc1ccc(Cl)cc1
  x	11230	1	10	11	1.6	7
38	CCOC(=O)C1CCN(Cc2oc(CO)cc(=O)c2O)CC1
  -25	3878	5	-79	-13	4.4	2
39	O=C(Nc1cc(Br)ccc1O)C1CC(c2c(F)cccc2Cl)=NO1 (centres undefined)
  -16	3602	-2	21	14	4.7	0
40	COC(c1ccccc1)c1nnc(CCC(=O)N2CCCCCCC2)o1 (centres undefined)
  -2	4013	7	8	-4	8.8	-2
41	CCOC(=O)NN1C(=O)c2ccccc2NC1c1ccccc1F (centres undefined)
  -26	3240	-3	2	7	3.7	1
42	O=C(Cc1ccc(NC2=NC3CS(=O)(=O)CC3S2)cc1)N1CCN(c2ccc(F)cc2)CC1 (centres undefined)
  -6	5434	-1	4	5	3.9	6
43	COc1ccc(S(=O)(=O)N(C)CC(=O)Nc2ccccc2C(F)(F)F)cc1OC
  0	3103	-3	1	6	4.6	-2
44	Cc1ccccc1Nc1nc(N)nc(CSCc2c(C)noc2C)n1
  -14	3783	15	7	7	5.8	11
45	Cc1cccc(-c2n[nH]c(=S)n2C)c1
  -3	3115	3	2	1	5.9	-1
46	Cc1cccc(NC(=O)CCC(=O)N/N=C/c2ccncc2)c1
  15	2411	x	x	x	x	-11
47	O=C(CCl)Nc1cc(S(=O)(=O)N2CCOCC2)ccc1N1CCOCC1
  -6	3223	2	-3	6	3.8	10
48	O=S(=O)(Nc1ccc2c(c1)OCCO2)c1ccc(Br)s1
  -28	11497	-3	-7	3	2.5	-6
49	CC(Oc1ccc(Cl)cc1Cl)C(=O)Nc1ccc(S(=O)(=O)Nc2cnc3ccccc3n2)cc1 (centres undefined)
  x	x	2	x	x	-1.6	-7
50	CCOC(=O)C1=NNC2(c3ccc(Cl)cc3)C(=O)N(c3cc(C)cc(C)c3)C(=O)C12 (centres undefined)
  -11	2893	-1	5	7	2.8	-8
51	Cc1cc(C)n2c(SCC(=O)N(C)C3CCS(=O)(=O)C3)nnc2n1 (centres undefined)
  -27	4894	-2	x	x	1.1	-2
52	C/C(=N\NC(=O)c1cc(O)ccc1O)c1cccc(NC(=O)c2ccc(Cl)cc2)c1
  -10	5510	x	x	x	x	2
53	COc1ccc(-c2oc3ccccc3c2C#CC(C)(C)O)cc1
  -10	3799	18	8	7	-2.9	x
54	COc1cc(NC(=O)c2ccc(S(=O)(=O)N(C)C)cc2)cc(OC)c1OC
  -38	7464	3	9	2	1.0	-8
55	O=C(NC1CCCN(c2ccc(C(F)(F)F)cn2)C1)c1cc(Cl)ccc1F (centres undefined)
  -4	6031	-4	2	-4	-0.8	-1
56	CC(=O)Nc1ccc2[nH]c3ccccc3c2c1
  -35	8798	-6	14	2	-2.1	-2
57	CC[C@@]12C(=O)N(c3ccc(C)cc3)C(=O)N1[C@H](c1ccc(Br)cc1)[C@@H]1C(=O)N(C(C)(C)C)C(=O)[C@@H]12
  -29	4584	x	x	x	x	0
58	Cc1c(C)n(C)c2ccc(C(=O)NCCCN(C)C3CCCCC3)cc12
  -15	7422	-1	0	1	-5.1	16
59	C=CCNC(=O)c1cc2c(=O)c3ccccc3oc2nc1C
  -14	4949	6	11	15	3.7	-1
60	Cc1[nH]c(=O)c(C#N)c(C)c1CCC(=O)N(C)CC(=O)Nc1ccc(Cl)c(Cl)c1
  -9	6029	1	4	16	1.2	-11
61	Cc1occc1C(=O)NNC(=O)c1ccccc1C(=O)O
  -37	4094	-1	-2	1	-1.9	-2
62	CC1C2=C(CC(C)(C)CC2=O)NC2=C1C(=O)CC(C)(C)C2
  -27	5059	6	5	6	8.4	-4
63	COc1ccc(Cl)cc1-c1nc(N)nc(NC2CCCCC2)n1
  -18	8964	-1	2	4	10	-1
64	COC(=O)c1ccccc1N=Nc1c(C)[nH][nH]c1=O
  -32	3896	-1	14	10	5.7	-4
65	C=CCN(CC=C)S(=O)(=O)c1ccc(F)cc1
  -27	11039	11	9	1	5.6	-3
66	Nc1c(C(=O)NCCc2ccccc2)c2nc3ccccc3nc2n1CCN1CCOCC1
  -17	4121	-19	-5	-2	-14	0
67	Cc1ccc2nccc(C(=O)N3CCCC(Nc4ccc(F)cc4)C3)c2c1 (centres undefined)
  -22	5627	-5	-2	8	-3.1	-2
68	O=C1NCCN1C(=O)c1ccco1
  -21	22557*	-1	-1	4	1.9	0
69	COc1cc(C(=O)O)nc(OC)n1
  -9	3964	5	-1	6	-0.4	-4
70	CCCCNC(=O)c1onc(CSc2cc(C)cc(C)c2)c1C(=O)NCCCC
  -2	2970	-11	5	6	-4.7	-14
71	Cc1cccn2c(=O)c3cc(C(=O)N4CCCCC4C)sc3nc12 (centres undefined)
  5	8897	2	6	16	2.4	x
72	COc1ccc(Oc2nc(C)cc(C)c2S(C)(=O)=O)cc1
  -8	3335	11	-7	-3	13	0
73	CCOCCCNC(=S)NCCCNc1nc2cc3c(cc2cc1C#N)OCO3
  -21	13247	-4	4	19	0.7	-4
74	COC(=O)c1cc(NC(=O)c2cc(C(C)(C)C)nn2Cc2ccc(F)cc2)ccc1N1CCOCC1
  -34	x	-16	-11	7	1.0	2
75	CCn1c(COc2cccc(C)c2C)nnc1SCC(=O)N1CCN(c2ccc(OC)cc2)CC1
  -24	9343	-4	0	12	7.1	15
76	O=C(COC(=O)c1ccc(-c2ccc([N+](=O)[O-])cc2)o1)NC(=O)NC1CCCCC1
  -26	2629	-12	4	5	-2.8	0
77	Cn1c(=O)c2[nH]c(=S)n(Cc3ccccc3)c2n(C)c1=O
  -4	3066	5	7	7	5.6	x
78	Cc1[nH]n(-c2ccc([N+](=O)[O-])cc2)c(=O)c1C=NCCc1ccc(S(N)(=O)=O)cc1
  -7	4870	-2	2	-4	1.4	21
79	O=C(NCc1ccco1)C(=O)NCC1OCCN1S(=O)(=O)c1ccc(Cl)cc1 (centres undefined)
  -18	5614	-3	-2	2	3.1	8
80	COc1ccccc1/C=N/NC(=O)c1ccc(C)nc1
  -17	3550	x	x	x	x	2
81	COc1ccc(-c2csc(N(CCCN(C)C)C(=O)c3ccccc3Cl)n2)cc1
  -9	4025	3	9	24	-4.5	10
82	CC(=O)Nc1c(-c2ccccc2)nc2ncccn12
  -21	5078	7	1	1	3.7	17

Source: PubChem
